Screening results: PubChem, Fisher Drug Discovery Resource Center
NPYLR7 agonist: activates Aedes aegypti NPYLR7 receptor; HEK293T NPYLR7/Galpha15, GCaMP6s calcium fluorescence; activation, % at 10 µM; hit rate 0.15% among 270,000; in the data active = activation above about 40%;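 also: 0% = vehicle and 100% = reference agonist at the receptor; some compounds past the cut are filed as inactive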
NPYLR7 agonist max-min: also measured in NPYLR7 agonist; calls as there; activation, %; measured here: Max-Min RFU normalised activation; some inactives read as strong as hits;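 span of the calcium signal over five minutes; 0% = vehicle and 100% = native peptide agonist; compound fluorescence can raise it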
Numbers without * were called inactive; & = joins results of further samples.

Compound	NPYLR7 agonist	NPYLR7 agonist max-min
CC(C)N(C(=O)c1ccc2c(c1)CC(c1ccccc1)OC2=O)C1CC1 (stereo not drawn)	2	-1
CC(C)(C)c1csc(C2C(=N)N(CC3CC3)CC2=O)n1 (stereo not drawn)	7	5
CC(=O)c1ccc(N2C(=O)c3cccc4c(Cl)ccc(c34)C2=O)cc1	-5	-10
C=CCn1c(SCc2ccc(C(=O)Nc3ccc(OC)c(OC)c3)cc2)nnc1-c1ccc([N+](=O)[O-])cc1	2	17
CCOCCCN(CC(=O)N1CCc2sccc2C1c1ccccc1C)C(=O)c1cccc(Br)c1 (stereo not drawn)	15	11
CCSC1CCCCN(C(C)c2nc(-c3cccnc3)no2)C1 (stereo not drawn)	7	5
Cc1ccc2nc(N3CCOCC3)c(C=C3SC(=S)N(C(C)c4ccccc4)C3=O)c(=O)n2c1 (stereo not drawn)	0	-1
Cn1c(SCC(=O)c2ccc([N+](=O)[O-])cc2)nc2ccccc21	-10	-14
CC(=O)c1ccc2oc(C(=O)O)cc(=O)c2c1	-2	-9
COc1ccc(Cc2n[nH]c(=O)n2-c2c(C)noc2C)cc1	4	0
CSCCC1NC(=S)N(c2ccc(C)cc2F)C1=O (stereo not drawn)	4	1
CC(C)(C)c1cc(Oc2cccc(F)c2)nc(SCc2ccccc2C#N)n1	3	19
O=C(NCc1ccc(O)c(O)c1)c1cccnc1Oc1ccc(Cl)cc1	-21	-26
COc1cccc(CN(CC2CC(c3cccc(F)c3)=NO2)C(=O)C2CC2)c1 (stereo not drawn)	16	21
Cc1cc(C)c(S(=O)(=O)Nc2nc(C(F)(F)F)cs2)c(C)c1	-5	-4
CCN1Cc2ccccc2CC1C(=O)N(C)Cc1n[nH]c2c1CCC2 (stereo not drawn)	-3	-8
CCC(=O)N[C@@H]1c2ccccc2C2(CCN(C/C=C/c3ccc(O)c(OC)c3)CC2)[C@H]1OC	5	3
CCCc1ccc(N2CC(C(=O)Nc3cccc(C)n3)CC2=O)cc1 (stereo not drawn)	-3	-4
COc1ncccc1C(=O)N1CCC(n2nccc2NC(=O)CCCc2ccccc2)CC1	10	4
CCOC(=O)N1CCC(NC2CCN(c3ccc(C(=O)NCCN4CCOCC4)cc3)CC2)CC1	13	0

Some of the entries above in another layout.
CCSC1CCCCN(C(C)c2nc(-c3cccnc3)no2)C1 (stereo not drawn)
  NPYLR7 agonist: 7 | NPYLR7 agonist max-min: 5
Cc1ccc2nc(N3CCOCC3)c(C=C3SC(=S)N(C(C)c4ccccc4)C3=O)c(=O)n2c1 (stereo not drawn)
  NPYLR7 agonist: 0 | NPYLR7 agonist max-min: -1
Cn1c(SCC(=O)c2ccc([N+](=O)[O-])cc2)nc2ccccc21
  NPYLR7 agonist: -10 | NPYLR7 agonist max-min: -14
CC(=O)c1ccc2oc(C(=O)O)cc(=O)c2c1
  NPYLR7 agonist: -2 | NPYLR7 agonist max-min: -9

Going on with the list:
Compound	NPYLR7 agonist	NPYLR7 agonist max-min
O=c1c2c3c(sc2nc2c4ccccc4c4nnnn4n12)CCCC3	4	2
CCOC(=O)c1c(-c2cccs2)csc1NC(=O)c1cc2ccccc2oc1=O	2	9
Cn1c(-c2ccccc2Cl)nn(CN2CCC(C(=O)c3ccccc3)CC2)c1=S	8	9
CC(NS(=O)(=O)N1CCCCC1C)c1cccs1 (stereo not drawn)	2	0
COc1ccc(-c2nnc(NC(=O)C(C)NS(=O)(=O)c3ccc(Cl)cc3)s2)cc1 (stereo not drawn)	34	30
Cc1nn(Cc2nnc(SCC(=O)O)n2C)c(C)c1C	5	6
CC(=O)Nc1ccc(CN2C(=O)C(Cc3ccccc3)ON=C2C)cc1 (stereo not drawn)	7	3
O=S(=O)(c1ccc(F)cc1)N1CCCc2ccccc21	4	3
C[C@H](C(=O)N[C@@H]1CCCc2ccccc21)N1Cc2ccc(-c3ccnn3C)nc2C1=O	6	7
CCc1c(C(=O)N(C)CCn2ccnc2C)[nH]c2ccccc12	5	2
Cn1cc(C(=O)N2CCOCC2)c2nn(-c3ccccc3)c(=O)c-2c1	5	3
Cc1nn(-c2ccccc2)c2ncc(C(=O)N(C)C3CCCCC3)c(Cl)c12	9	4
CN(NC(=O)c1cncn1-c1ccc(F)cc1)c1cnn(C)c(=O)c1Cl	3	-2
CCN(CC(O)COCc1ccco1)CC1CC(c2ccc(OC)cc2)=NO1 (stereo not drawn)	-2	4
CC1=C(C(=O)N2CCc3c(cc(-c4cccc5nc(C)ccc45)c(=O)n3CC3CC3)C2)OCCO1	29	10
OCCC#Cc1ccc(C2NCCc3[nH]cnc32)cc1 (stereo not drawn)	1	-2
Cc1ccc(C(=O)OCc2cc(C)on2)c(O)c1	0	-3
CC(C)N(Cc1nnc(-c2ccccc2Cl)o1)C(=O)C1CC=CCC1 (stereo not drawn)	8	5
CNc1ccc(C(O)(c2ncnn2C)C(F)(F)F)cc1 (stereo not drawn)	0	-2
Cc1nc2ccc(Cl)cc2c(-c2ccccc2F)c1C(=O)N(C)C	7	5
COc1cccc(CN2CCN(c3noc(C(C)C)n3)CC2)c1F	-1	-3
CN(CCOc1ccc(Cl)cc1)CC(=O)Nc1cc(F)ccc1F	-1	-3
COC(=O)c1c(NC(=O)CNc2ccccc2I)sc(C)c1C	13	6
CSc1ccc(C2c3cc4c(cc3OC(=N)C2C#N)OCO4)cc1 (stereo not drawn)	3	-1
Cc1cc(Br)cc2c(N=Nc3cccc4cccnc34)c(O)[nH]c12	-2	6
O=C(NCCc1nc2ccccc2s1)C1CC2COCC(C1)C2=O (stereo not drawn)	1	-1
Cc1cc(O)c(C(c2cccnc2)N2CCN(c3ccccc3F)CC2)c(=O)n1Cc1ccccc1 (stereo not drawn)	12	8
Cc1c[nH]c(=O)n1-c1ccc(C(=O)OCc2nc3ccccc3o2)cc1	0	49
COc1ccc(Cl)c(C2=NOC(C(=O)NCCC(=O)NCc3ccccn3)C2)c1 (stereo not drawn)	-1	-1
Cc1ccc2nc(C)c(C(=O)NCc3nc(-c4ccccn4)no3)cc2c1	-1	-7
COC(C)c1cccc(NC(=O)c2cccc3c2OCCO3)c1 (stereo not drawn)	6	4
O=P1(NCCCn2ccnc2)C=C(c2ccccc2)OC(c2ccccc2)=C1	-2	-4
COC(=O)c1cc(-c2ccc(OC)cc2)n[nH]1	1	0
C#CCN(Cc1ccc(F)cc1)C(=O)Nc1cc(C)nn1C	1	0
Cc1ccc2nc(C)c(C(=O)N(Cc3cnn(C)c3)CC(C)C)cc2c1	-1	-4
Cc1cccc(CC(CC(=O)N2CCC3(CC2)CC(=O)c2cc(F)ccc2O3)C(=O)N2CCC3(CC2)CC(=O)c2cc(F)ccc2O3)c1 (stereo not drawn)	-6	-10
COc1cccc(N2C(=O)N(Cc3cccc(C#N)c3)c3ccccc3S2(=O)=O)c1	3	6
CCc1c(C)nc(-n2nc(C)cc2C)n(CC(=O)Nc2ccc(F)cc2)c1=O	-1	-3
Cc1ccc(CNC(=O)COc2ccccc2C2SCCS2)cc1	10	5
O=C(NC1CCCCCCC1)c1cccc(-n2cnnn2)c1	1	-3
S=P(N1CC1)(N1CC1)N1CC1	-5	-5
CCc1ccc(-c2nccn2CC(C)Oc2cccnc2)nc1 (stereo not drawn)	3	0
CCC(NC(=O)Cc1c[nH]c(=O)n(C)c1=O)c1cc(C)ccn1 (stereo not drawn)	-6	-9
COC(=O)c1cc(-c2ccc(OC)c(C)c2)nc2c1c(C)nn2C1CCS(=O)(=O)C1 (stereo not drawn)	10	5
Cn1c(=O)[nH]c(=O)c2c1nc1n(CCN3CCOCC3)c(-c3ccccc3)cn21	4	3
O=C(Cn1c2[n+](c3ccccc31)CC(O)CS2)c1ccccc1 (stereo not drawn)	0	-1
COc1ccc(CCN(C)C(=O)CCC(=O)c2ccc(SC)cc2)cc1OC	-5	-9
CC(C(=O)NC(N)=O)N1C(=O)NC(c2ccccc2)(c2ccccc2)C1=O (stereo not drawn)	5	4
CC(C)=CCOc1cccc(C(=O)NCc2ccon2)c1	6	5
Cc1ccc(S(=O)(=O)NCc2ccccc2)cc1	-9	-15
CN1CCN2CCN(Cc3ccccc3Cn3cccn3)CC2C1 (stereo not drawn)	7	6
C=CCC(CC=C)C(=O)Nc1ccc(-c2ncc(C(C)C)o2)cc1	9	3
CSCC(=O)Nc1n[nH]c(-c2cccc(Cl)c2)n1	-9	-5
Cc1c(C)n2c3c(=O)n(CC=Cc4ccccc4)c(=O)n(C)c3nc2n1C1CCCC1	3	6
CN(C)CC1COCCN(Cc2c(-c3ccccc3)nc3ncccn23)C1 (stereo not drawn)	8	9
COc1ccc(-c2cccc(-n3cncc3C(=O)NCc3cnc(C)cn3)c2)cc1OC	27	29
Cc1nc2c(O)cccc2c(=O)[nH]1	-13	-20
CC(C)C(=O)N1CCC(C(=O)Nc2ccc(Br)cc2C(F)(F)F)CC1	0	0
COc1cccc(-c2nccn2CCc2ccco2)c1OC	4	4
CCN(CC(=O)Nc1ccc(NC(C)=O)cc1)Cc1cccc(F)c1F	2	-4

Complete entries, looked up by structure. Order of values: NPYLR7 agonist | NPYLR7 agonist max-min
Entry for CC(C)N(Cc1nnc(-c2ccccc2Cl)o1)C(=O)C1CC=CCC1 (stereo not drawn) : 8 | 5
Entry for Cc1ccc(CNC(=O)COc2ccccc2C2SCCS2)cc1 : 10 | 5

The listing continues.
smiles | NPYLR7 agonist | NPYLR7 agonist max-min
Cc1cc2c(=O)n(Cc3ccco3)c(SCC(=O)Nc3nccs3)nc2s1 | 3 | 1
C=CCN(Cc1nccn1Cc1ccccc1)C(=O)c1ccc(Cl)cc1 | 19 | 23
NC(=O)Nc1ccc(NC(=O)C2C3CC4CC(C3)CC2C4)cc1 (stereo not drawn) | 11 | 8
CCOc1ccc(N2C(=O)CC(NCCc3ccc(Cl)cc3)C2=O)cc1 (stereo not drawn) | -9 | -17
COc1ccc(C(=O)N2CCCN(Cc3cc(=O)c(OCc4ccc(C(C)(C)C)cc4)co3)CC2)cc1OC | 18 | 6
Cc1[nH]cnc1-c1nccn1C(Cc1ccccc1)C(=O)O (stereo not drawn) | 2 | -1
CC1CCN(CCNc2nc(-c3ccncc3)nc3ccccc23)CC1 | 8 | 5
Cc1ccc(S(=O)(=O)N2CCN(C(=O)c3ccoc3C)CC2)c(C)c1 | 11 | 1
Cc1cc(C(=O)NNC(=O)CCC2CCCCC2)c(C)o1 | 4 | 12
CCOc1ccc2c(c1)CN(CCCc1nc(C)no1)CC2 | 1 | 0
CSCCCNC(=O)c1ccc(-c2ccc(F)cc2)s1 | 0 | 8
CCCNC(=O)c1cc(-c2ccccc2OC)nc2cc(-c3ccccc3)nn12 | -1 | -1
CCc1ccc(OCCN(C)C(=O)CC2=CCNCC2)cc1 | 17 | 10
COc1ccc(Br)cc1-c1nnc2n(CC(C)C)c3c(=O)n(C)c(=O)n(C)c3n12 | 4 | -1
Cn1nc(C(=O)O)c2c1CCN(C(=O)CSC13CC4CC(CC(C4)C1)C3)C2 | 4 | 13
O=C(NCc1ccc(-c2ccccc2)cc1)c1cc2n(n1)CCN(Cc1cccc(Cl)c1)C2=O | 14 | 5
Cn1c2c(c(=O)n(C)c1=O)C(c1ccc(Br)cc1)C1=C(N2)c2ccccc2C1=O (stereo not drawn) | 23 | 12
O=C(NCc1cccs1)c1cc(COc2ccc3c(c2)OCO3)[nH]n1 | -4 | -8
CCN1CCCC(NC(=O)NCCCc2ccc(OC)cc2)C1 (stereo not drawn) | 14 | 8
O=C1CC(c2cccc3nsnc23)c2c(n[nH]c2-c2ccco2)N1 (stereo not drawn) | 9 | 0

Of the compounds above, 2 have a nitro group on carbon.
smiles | NPYLR7 agonist | NPYLR7 agonist max-min
C=CCn1c(SCc2ccc(C(=O)Nc3ccc(OC)c(OC)c3)cc2)nnc1-c1ccc([N+](=O)[O-])cc1 | 2 | 17
Cn1c(SCC(=O)c2ccc([N+](=O)[O-])cc2)nc2ccccc21 | -10 | -14

Next results
smiles | NPYLR7 agonist | NPYLR7 agonist max-min
CCN(CC)C(=O)Oc1ccc2c(ccn2Cc2ccccc2F)c1NC(=O)COc1cccc(Cl)c1 | -1 | -8
CCn1c(SCc2cc(=O)n3cc(Br)ccc3n2)nc2ccsc2c1=O | -1 | -3
O=C(O)C1CCN(c2nc(Cc3ccc(Cl)cc3)ns2)CC1 | -2 | 12
Cc1ccc2nc(C3CCN(c4nncc(-c5ccc(Cl)cc5)n4)CC3)[nH]c2c1 | 10&0 | 1&-2
CCn1c(C2CCCNC2)nn(CCOc2ccc(C)cc2C)c1=O (stereo not drawn) | -3 | -2
CC(C)O[C@H]1CN(C(=O)c2cccc(CC3CCNCC3)c2)C[C@@H]1O | 6 | 3
COc1ccc(-c2ccc3nnc(-c4ccc(OCCCN(C)C)cc4)n3c2)cc1 | 6 | -3
Cc1cccc(C)c1N=c1scc(C)n1N1CCOCC1 | -3 | -5
CC(C)CC(=O)N1C[C@H](C(N)=O)[C@H]2c3ccccc3N(CCO)C(=O)[C@]21C | 26 | 37
N#CC(C#N)c1nc2ccccc2nc1-[n+]1cccc(NC(=O)c2ccc(Br)o2)c1 | 11&2 | 15&-3
CN(CCn1ccc2ccccc21)C(=O)CN1CCOC1=O | 0 | -2
Cc1ccc(C2C3CSCC=C3C(C#N)C(=N)C2(C#N)C#N)cc1 (stereo not drawn) | 7 | 6
COCC(=O)Nc1ccccc1-c1ccc(OC)c2nc(C)ccc12 | 8 | 5
Cn1cnnc1Sc1ccc(CN2CCc3c([nH]c4ccccc34)C2c2ccccn2)o1 (stereo not drawn) | -6 | -8
O=C(NCC(F)(F)F)C1CSCN1C(=O)c1ccccc1Cl (stereo not drawn) | 13 | 17
COc1nccnc1NS(=O)(=O)c1ccc(N=Cc2c(C)[nH]n(-c3ccc(Cl)cc3)c2=O)cc1 | -3 | 0
Cc1ccc(Cn2c(=O)c3c(nc4n3CCN4c3ccc(F)cc3)n(C)c2=O)cc1 | 1 | -1
Cc1ncc2c(c1CNC(=O)c1ccc3c(c1)OCO3)CCN(C(=O)CSc1ccccc1)C2 | 18 | 4

These rows are one share of the data. The share of hits here may be higher or lower than overall.
